Vaccinia Venus = vaccinia inhibition (Venus reporter) | Vaccinia virus Venus reporter expression, fluorescence | Potency, µM (series often up to 36.5 µM), without a hit: at the highest dose activity change, negative = inhibition, usual class: inhibitors | 330,000 tested, 0.46% active | AID 720580; active means well fitted inhibition curve with a large enough effect; inconclusive means small, poorly fitted or top-dose-only effect; inactive means no such curve, though single readings can be large or run the other way; tested in A549 cells; further: nearly all actives have a fitted effect of over 30% in size; inactives centre near -10
VACV mCherry inh = inhibitors of vaccinia virus infection (mCherry reporter signal) | Potency, µM (doses to about 36.5 µM), for the others: at the top dose activity change, negative = inhibition, actives largely listed as inhibitors | 310,000 tested, 0.63% active | Vaccinia virus mCherry reporter infection, fluorescence; about a quarter of the inactives have no number | AID 720579; active = well fitted inhibition curve with a large enough effect; inconclusive = small, poorly fitted or top-dose-only effect; inactive = no such curve, though single readings can be large or run the other way; tested in A549 cells; further: nearly all actives have a fitted effect of over 35% in size; inactives centre near -10
The depositor's hits bear a star; [ ] = another dose, or the depositor's remark. On the % scale 0 is the no-effect control and ±100 the full control effect; potency means the concentration at half of the fitted maximal effect. Not a hit list; about 0.82% have a hit in one of these screens.

`CCCCCCNC(=O)O[C@H]1CN(C(=O)OC(C)C)N(C(=O)OC(C)C)[C@@H]2CN(S(=O)(=O)c3ccc(C)cc3)C[C@]12O` gave Vaccinia Venus inconclusive and VACV mCherry inh -6.7%.
Screening COc1ccc(-c2oc3ncn4nc(COc5c(C)cccc5C)nc4c3c2-c2ccc(OC)cc2)cc1 returned Vaccinia Venus 5.4% and VACV mCherry inh -14.3%.
Screening CCN(CC)CCN(C(=O)c1cc(Cl)sc1Cl)c1nc2cc3c(cc2s1)OCO3 returned Vaccinia Venus -2.2% and VACV mCherry inh -13.2%.
Screening COc1ccc(S(=O)(=O)NNC(=O)c2ccccc2-n2cccc2)cc1 returned Vaccinia Venus -4.9% and VACV mCherry inh -11.7%.
`c1ccc(Nc2ncnc3c2oc2ccccc23)cc1` gave Vaccinia Venus -13.2% and VACV mCherry inh inconclusive.
`O=C(CNC(=O)c1cccs1)N/N=C/c1ccc(Cl)cc1` gave Vaccinia Venus -0.1% and VACV mCherry inh -3.8%.
`CCOC(=O)c1cc2c(=O)n3ccccc3nc2n(CC2CCCO2)c1=NC(=O)c1ccccc1Br` (stereo unspecified) gave Vaccinia Venus inconclusive and VACV mCherry inh inconclusive.
Screening Cc1ccc(N=C2NC(=O)C(CC(=O)O)S2)cc1 (stereo unspecified) returned Vaccinia Venus -7.7% and VACV mCherry inh -4.4%.
CC(C)c1ccc(C(=O)OC2CCOC2=O)cc1 (stereo unspecified) was read as Vaccinia Venus -4.6% and VACV mCherry inh -2.6%.
COc1ccc(C(=O)OC(C)C(=O)Nc2cc(C(F)(F)F)ccc2Cl)c(OC)c1OC (stereo unspecified) was read as Vaccinia Venus -18.2% and VACV mCherry inh inconclusive.
Screening Cc1ccc(-n2ncc(C(=O)N3CCN(c4cccc(C)c4C)CC3)c2C2CCNCC2)c(C)c1 returned Vaccinia Venus -22.9% and VACV mCherry inh -22.6%.
Screening CCOC(=O)CSc1nc2sc3c(c2c(=O)n1-c1ccccc1)CCC(C(C)(C)C)C3 (stereo unspecified) returned Vaccinia Venus -6.4% and VACV mCherry inh -4.7%.
Screening COC(=O)c1c(O)c2c([nH]c1=O)CCCC2 returned Vaccinia Venus -18.3%.
O=C(CCCO)NNc1c2ccccc2nc2ccccc12 was read as Vaccinia Venus -4.5%[7.34 µM] and VACV mCherry inh -21.9%[7.34 µM].
Screening CC(C)OC(=O)C1Cc2ccccc2CN1S(=O)(=O)c1cccs1 (stereo unspecified) returned Vaccinia Venus 16.0% and VACV mCherry inh inconclusive.
`CCOC(=O)C1CCCN(CC(=O)/C=C2/N(C)c3ccccc3C2(C)C)C1` (stereo unspecified) gave Vaccinia Venus -9.0%.
`CN(Cc1ccc(Cl)c(Cl)c1)C(c1cc2ccccc2o1)c1nnnn1C(C)(C)C` (stereo unspecified) gave Vaccinia Venus -1.0% and VACV mCherry inh -1.9%.
`CN1OC[C@@H]2CN(S(=O)(=O)c3ccccc3)[C@H](c3ccc(N4CCCCC4)cc3)C[C@@H]21` gave Vaccinia Venus -14.8% and VACV mCherry inh -1.5%.
Screening O=C(NCC(c1ccc(Cl)cc1)N1CCCCC1)c1ccccc1 (stereo unspecified) returned Vaccinia Venus -7.4% and VACV mCherry inh -10.8%.
Screening O=C(c1ccc2c(c1)N(Cc1ccccc1)C(=O)c1ccccc1S2(=O)=O)N1CCN(c2ccccc2)CC1 returned Vaccinia Venus -6.5% and VACV mCherry inh -11.6%.
Cc1ccc(C)c(OCC(=O)Nc2ccc(S(=O)(=O)Nc3ccccn3)cc2)c1 was read as Vaccinia Venus -0.6% and VACV mCherry inh -13.4%.
Cc1cccc(N2CC(C(=O)OCc3ccc([N+](=O)[O-])cc3)CC2=O)c1 (stereo unspecified) was read as Vaccinia Venus 0.1% and VACV mCherry inh -8.7%.
For COC[C@@H]1CCCN1[C@H]1CS(=O)(=O)N[C@@H]1COCc1ccccc1 the results were Vaccinia Venus 3.7% and VACV mCherry inh 12.4%.
Screening COc1ccccc1OCC(=O)Nc1cc(Cl)ccc1Oc1ccccc1 returned Vaccinia Venus -16.2% and VACV mCherry inh -10.1%.
`COc1ccccc1C(=O)COC(=O)/C=C/c1ccccc1` gave Vaccinia Venus -12.8% and VACV mCherry inh inactive.
Screening CC(=O)Nc1ccc(C(=O)NCC2(N3CCCCC3)CCCCC2)cc1 returned Vaccinia Venus -2.2% and VACV mCherry inh -12.6%.
CC1CC(C)CN(C(=O)Cn2c(=O)n(CCCC(=O)NCc3ccco3)c(=O)c3sccc32)C1 (stereo unspecified) was read as Vaccinia Venus 15.2% and VACV mCherry inh -9.6%.
For CCOc1cc(/C=N/Nc2nc(Nc3ccccc3)nc(N3CCCCC3)n2)ccc1OCC(=O)O the results were Vaccinia Venus -19.9% and VACV mCherry inh -9.3%.
`O=C(NCC1CCCO1)c1ccccc1-c1nc(-c2ccccc2Cl)no1` (stereo unspecified) gave Vaccinia Venus 0.0% and VACV mCherry inh inactive.
For CC(=O)Nc1cccc(Oc2nc(NC(C)C)nc3cc(-c4ccccc4)sc23)c1 the results were Vaccinia Venus -11.7% and VACV mCherry inh 7.7%.
`Cc1nc(CNS(=O)(=O)c2cccc(F)c2)cs1` gave Vaccinia Venus -5.0% and VACV mCherry inh -17.0%.
`Cc1cc(N2CCOCC2)c2c(N)c(C)cc(C)c2n1` gave Vaccinia Venus -15.1% and VACV mCherry inh inactive.
Cc1c(NC(=O)COC(=O)C2=COCCO2)cccc1[N+](=O)[O-] was read as Vaccinia Venus -4.3% and VACV mCherry inh -12.6%.
For O=C(NCCOc1ccccc1)c1cc(C(=O)NCCOc2ccccc2)cc([N+](=O)[O-])c1 the results were Vaccinia Venus -19.6% and VACV mCherry inh inconclusive.
For COc1cccc(N2CCN(C(=O)c3cccn3-c3nnc(N4CCCCC4)s3)CC2)c1 the results were Vaccinia Venus -0.4% and VACV mCherry inh -13.5%.
Screening N#CCc1ccc(OCCCN2CCC(C(O)(c3ccccc3)c3ccccc3)CC2)cc1 returned Vaccinia Venus -13.4% and VACV mCherry inh -11.2%.
Screening COCCCNCCOCCOc1c(OC)cccc1OC returned Vaccinia Venus -2.2% and VACV mCherry inh -18.7%[1.46 µM].
COc1cccc(CNC(=O)C2(C)CCCN2C(=O)C(C)C)c1 (stereo unspecified) was read as Vaccinia Venus 9.6% and VACV mCherry inh 22.2%.
CCCc1nn(C)c(C(N)=O)c1[N+](=O)[O-] was read as Vaccinia Venus -13.8% and VACV mCherry inh -1.2%.
CN(C)NC(=S)Nc1ccc(S(=O)(=O)N2CCCCC2)cc1 was read as Vaccinia Venus -0.3% and VACV mCherry inh -3.1%.
`COc1ccc(/C=C2/CCc3ccccc3C2=O)cc1OC` gave Vaccinia Venus inconclusive and VACV mCherry inh -27.4%.
For O=C(NCCN1CCN(Cc2ccccc2)CC1)c1ccc(CS(=O)(=O)c2c(Cl)cccc2Cl)o1 the results were Vaccinia Venus -17.5% and VACV mCherry inh inconclusive.
CC(C)(Oc1ccc(Cl)cc1)C(=O)Nc1cccnc1 was read as Vaccinia Venus -11.9% and VACV mCherry inh -14.9%.
`O=C1CC(N2CCOCC2)C(=O)N1CCc1ccccc1` (stereo unspecified) gave Vaccinia Venus -12.6%.
COc1ccccc1OCC(=O)NCCC1=CCCCC1 was read as Vaccinia Venus -9.3% and VACV mCherry inh inactive.

The last 4 records of the part above open the next one:
For O=C(NCCN1CCN(Cc2ccccc2)CC1)c1ccc(CS(=O)(=O)c2c(Cl)cccc2Cl)o1 the results were Vaccinia Venus -17.5% and VACV mCherry inh inconclusive.
CC(C)(Oc1ccc(Cl)cc1)C(=O)Nc1cccnc1 was read as Vaccinia Venus -11.9% and VACV mCherry inh -14.9%.
`O=C1CC(N2CCOCC2)C(=O)N1CCc1ccccc1` (stereo unspecified) gave Vaccinia Venus -12.6%.
COc1ccccc1OCC(=O)NCCC1=CCCCC1 was read as Vaccinia Venus -9.3% and VACV mCherry inh inactive.
CO/N=C/C(c1ncc(C(F)(F)F)cc1Cl)S(=O)(=O)c1ccccc1 (stereo unspecified) was read as Vaccinia Venus -18.4% and VACV mCherry inh -15.0%.
COc1ccc(CN2C(=O)NC3(CCCC3)C2=O)cc1F was read as Vaccinia Venus -4.7% and VACV mCherry inh inactive.
For O=C1CCC/C=C/C[C@H](CC(=O)N(CCO)Cc2ccccc2)C(=O)N[C@@H](Cc2ccccc2)CO1 the results were Vaccinia Venus -11.8% and VACV mCherry inh -26.1%.
For Cc1ccc([C@@H]2[C@@H]3C(=O)N(C)C(=O)[C@@H]3[C@@H]3C(=O)Nc4ccccc4C(=O)N23)cc1 the results were Vaccinia Venus -20.6% and VACV mCherry inh inactive.
Screening O=C(c1noc2c1CCCCC2)N1CCN(c2ccc(Cl)cc2)CC1 returned Vaccinia Venus -12.0% and VACV mCherry inh inactive.
For CCOC1=CC2=C(C(=O)C(Cl)=CC2=O)[C@@H]2CN(S(=O)(=O)c3ccc(C)cc3)[C@@H](c3ccccc3)[C@H]12 the results were Vaccinia Venus -8.8% and VACV mCherry inh 0.5%.
C/C(=N\NC(=O)Cc1c(F)cccc1Cl)c1cccnc1 was read as Vaccinia Venus -7.2% and VACV mCherry inh inactive.
Screening CCOc1ccc(C2C3=C(Nc4nc(N)[nH]c(=O)c42)c2ccccc2C3=O)cc1 (stereo unspecified) returned Vaccinia Venus -5.7% and VACV mCherry inh inactive.
Screening CCOc1cc2c(cc1OCC)C(c1ccccc1)N(c1ccc(C(=O)O)cc1)C(=O)C2 (stereo unspecified) returned Vaccinia Venus 7.6% and VACV mCherry inh 16.2%.
CN1CCN(C(=S)c2cn(Cc3ccc(F)cc3)c3ccccc23)CC1 was read as Vaccinia Venus -13.4% and VACV mCherry inh inactive.
For COc1cccc(CCC(=O)O)c1OC the results were Vaccinia Venus -9.2% and VACV mCherry inh -10.7%.
COc1cc(/C=N/NC(=O)c2cn(-c3cccc(C)n3)cn2)ccc1O was read as Vaccinia Venus -2.4% and VACV mCherry inh inconclusive.
Screening CCOC(=O)[C@@H]1[C@H]2COc3cc(OC)ccc3[C@@H]2N2C(=O)N(c3cccc(Cl)c3)C(=O)[C@@]12C returned Vaccinia Venus -13.8% and VACV mCherry inh -12.6%.
N#C/C(=C/c1cn(CC(=O)O)c2ccccc12)c1ccc(F)cc1 was read as Vaccinia Venus 2.9% and VACV mCherry inh -12.0%.
`CC(=O)c1cccc(NC(=O)Nc2sc3nc4n(c(=O)c3c2C)CCC(C)CC4)c1` (stereo unspecified) gave Vaccinia Venus 1.6% and VACV mCherry inh -4.5%.

Looked up by compound from the entries so far:
COc1cc(/C=N/NC(=O)c2cn(-c3cccc(C)n3)cn2)ccc1O was read as Vaccinia Venus -2.4% and VACV mCherry inh inconclusive.
Screening CCOc1ccc(C2C3=C(Nc4nc(N)[nH]c(=O)c42)c2ccccc2C3=O)cc1 (stereo unspecified) returned Vaccinia Venus -5.7% and VACV mCherry inh inactive.

Remaining list, next part.
CCc1noc(C)c1C(=O)N1CCN(c2cccc(Cl)c2)CC1 was read as Vaccinia Venus -11.9% and VACV mCherry inh -2.2%.
For CCCNC(=O)N1[C@H]2CC[C@@H]1C(C(=O)OC)=C(c1ccc(C(C)=O)cc1)C2 the results were Vaccinia Venus -2.9% and VACV mCherry inh inactive.
`CCN(C(=O)COC(=O)c1cc(-c2ccccc2)nc2c1c(C)nn2-c1ccc(C)cc1)C1CCS(=O)(=O)C1` (stereo unspecified) gave Vaccinia Venus -7.2% and VACV mCherry inh inactive.
Screening CC(C)n1nnnc1C1c2ccccc2C(=O)N1Cc1ccco1 (stereo unspecified) returned Vaccinia Venus -8.9% and VACV mCherry inh -0.3%.
Screening CC(C)C[C@H](NC(=O)/C=C/[C@H]1O[C@@H](n2ccc(=O)[nH]c2=O)[C@H](O)[C@@H]1O)C(=O)O returned Vaccinia Venus -10.9% and VACV mCherry inh inactive.
COc1ccc(-c2nnc(SCC(=O)NCc3cccs3)n2C)cc1 was read as Vaccinia Venus -8.4% and VACV mCherry inh -14.0%.
O=C(O)c1cccc(N2C(=O)c3cc4cccc(Br)c4cc3C2=O)c1 was read as Vaccinia Venus 1.0% and VACV mCherry inh -13.7%.
CC(=O)c1cccc(NC(=O)/C(=C/c2ccncc2)NC(=O)c2ccccc2)c1 was read as Vaccinia Venus -3.0% and VACV mCherry inh -14.8%.
Cc1cc(C)nc(-n2c(C)nc3cc(Cl)ccc3c2=O)c1 was read as Vaccinia Venus -5.8%.
For CCCCC(=O)N(C)c1c(C)nc2ccc(C(=O)NCCN(C)C)cn12 the results were Vaccinia Venus 0.1% and VACV mCherry inh inactive.
`COCCCC1CCN(C(=O)C2CCC(=O)N(Cc3cccc(F)c3)C2)CC1` (stereo unspecified) gave Vaccinia Venus -14.1% and VACV mCherry inh inactive.
For Cc1sc2nc(CN(C(=O)NC3CCCCC3)C3CCCCC3)[nH]c(=O)c2c1C the results were Vaccinia Venus -13.8% and VACV mCherry inh -1.5%.
`COc1cc(OC)c(N(C)C(=O)c2nn(C)c3c2CSc2ccccc2-3)cc1Cl` gave Vaccinia Venus -3.4% and VACV mCherry inh -12.4%.
CCCN(CC(=O)Nc1ccccc1C)C(=O)C1CCN(S(=O)(=O)c2cccc(C(F)(F)F)c2)CC1 was read as Vaccinia Venus -5.3% and VACV mCherry inh inactive.
`COc1ccc(-c2cc(NC=O)c3ncc(-c4ccc(OC)c(OC)c4)n3c2)cc1OC` gave Vaccinia Venus -19.8% and VACV mCherry inh inconclusive.
`O=C(COc1cccc2cccnc12)N/N=C/c1ccc(O)cc1` gave Vaccinia Venus -10.5% and VACV mCherry inh inactive.
For COc1cccc(CNCCSc2nnnn2C)c1OCc1ccccc1 the results were Vaccinia Venus -14.7% and VACV mCherry inh -20.6%.
Cc1cc(SCC(=O)NCCN2C(=O)CSC2=O)nc2c(C)cccc12 was read as Vaccinia Venus -10.7% and VACV mCherry inh -16.2%.

Assay outcomes as filed in PubChem BioAssay.
